B2AR ag – activates human beta-2 adrenergic receptor causing internalization. P07550. Am2.2-beta2AR cells, FAP receptor internalization, flow cytometry; reference of the scale not given here. response, % (no concentration beside the values). 340,000 tested, 0.43% active. AID 504454;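 active = response above a set limit, near 3 SD of response in nonfluorescent compounds, cut at about 42% in these data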;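 note: stock transfer was 100 nL into about 11 µL; a reference agonist was the positive control; negative values mostly stem from fluorescent compounds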
Bfl-1 A1 inh – inhibitors of the anti-apoptotic protein A1, read as caspase activation. 330,000 tested, 0.066% active. caspase activation, % (no concentration beside the values). MEF A1-2A-BIM cells, Caspase-Glo 3/7 luminescence, 3 h; percent of clofoctol response, vehicle zero;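 active = over half of replicate activation scores above 10%, or exactly half above 10 with the replicate mean above 10; inconclusive = replicate mean below 10 yet half the replicates above 10; inactive = over half of replicates below 10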;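 note: wells of about 30 µL received 50 nL stock; many hits fall short of the cut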
LANA-H2B inh – blocks KSHV LANA binding to histone H2A/H2B. AID 2629. cell-free LANA-H2A/H2B peptide, fluorescence polarization. Q9QR71. 320,000 tested, 0.6% active. inhibition, % (no concentration beside the values); in the data active = inhibition mostly above about 10%, no sharp cut-off; inactive = mostly below about 6.7%;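 note: stock transfer was 7.5 nL into about 10 µL; 0% = median of vehicle wells and 100% = median of positive control wells; one replicate is shown; the record names a cut of 25% in any replicate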
Target sequence (Q9QR71 whole entry, looked up): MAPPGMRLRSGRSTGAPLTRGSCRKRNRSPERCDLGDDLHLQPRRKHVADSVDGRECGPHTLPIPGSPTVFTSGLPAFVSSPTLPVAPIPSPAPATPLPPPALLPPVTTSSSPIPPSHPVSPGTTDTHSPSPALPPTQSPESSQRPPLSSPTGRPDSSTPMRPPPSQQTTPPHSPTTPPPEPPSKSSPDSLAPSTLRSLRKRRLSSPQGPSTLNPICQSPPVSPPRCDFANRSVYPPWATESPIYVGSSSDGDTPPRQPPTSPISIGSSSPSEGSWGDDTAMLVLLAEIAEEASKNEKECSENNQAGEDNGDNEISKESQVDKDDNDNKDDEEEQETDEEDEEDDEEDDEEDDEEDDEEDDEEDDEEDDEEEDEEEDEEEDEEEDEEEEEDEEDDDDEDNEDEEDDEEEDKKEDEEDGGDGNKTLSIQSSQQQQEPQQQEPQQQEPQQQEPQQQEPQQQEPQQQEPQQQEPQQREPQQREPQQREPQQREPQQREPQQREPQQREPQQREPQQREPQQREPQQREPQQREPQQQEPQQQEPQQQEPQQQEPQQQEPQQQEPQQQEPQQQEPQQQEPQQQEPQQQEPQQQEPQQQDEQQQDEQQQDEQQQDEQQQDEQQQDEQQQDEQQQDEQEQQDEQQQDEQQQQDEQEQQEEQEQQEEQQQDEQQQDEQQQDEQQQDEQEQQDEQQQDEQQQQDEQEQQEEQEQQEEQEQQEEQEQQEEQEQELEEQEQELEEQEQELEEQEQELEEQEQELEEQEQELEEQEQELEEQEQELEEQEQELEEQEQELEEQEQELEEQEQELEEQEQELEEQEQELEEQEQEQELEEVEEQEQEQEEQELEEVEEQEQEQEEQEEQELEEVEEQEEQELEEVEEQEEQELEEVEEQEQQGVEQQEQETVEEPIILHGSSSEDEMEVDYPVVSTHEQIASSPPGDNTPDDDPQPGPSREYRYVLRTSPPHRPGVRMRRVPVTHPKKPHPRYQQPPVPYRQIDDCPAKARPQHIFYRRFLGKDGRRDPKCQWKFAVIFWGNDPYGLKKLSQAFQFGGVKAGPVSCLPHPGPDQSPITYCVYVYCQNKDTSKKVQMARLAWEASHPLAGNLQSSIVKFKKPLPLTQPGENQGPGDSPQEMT
Ecoli rRNA inh – selective bacterial rRNA inhibition in E. coli; E. coli WT GFP vs humanized-ribosome RFP mutants, fluorescence, 24 h; hits give low values; DMSO median 0, no signal -100; GFP signal change (wild-type ribosome), % (test concentration not listed); 350,000 tested, 1.6% active; AID 720706;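 active = significant combined selectivity score with lowered wild-type GFP, culture density cut under 30%, mutant RFP and density less affected; inactive = any of these conditions unmet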; note: one replicate is shown; some compounds called inactive have numbers as strong as hits
Calb FLC – affects C. albicans growth with fluconazole. C. albicans CaCi-2 (fluconazole-resistant clinical isolate) + fluconazole, Alamar Blue growth, 48 h. growth inhibition, % (test concentration not listed). 300,000 tested, 0.57% active. AID 1979;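 active = most replicates above 75%; inconclusive = exactly half above 75%; inactive = most below 75%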;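 note: all wells also contain fluconazole at 8 µg/ml as a sub-toxic cotreatment; 0% = median of DMSO wells and 100% = median of geldanamycin control wells; wells of about 8 µL received 7.5 nL stock; the first replicate is given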
ALR inh – human ALR oxidase inhibition via reduced H2O2; purified ALR, DTT oxidation, H2O2 HRP-luminol luminescence; inhibition, % (no concentration beside the values); 290,000 tested, 3.8% active;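 active = mean and each replicate at 75% or more; inconclusive = only one of the two met; inactive = neither met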;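 note: stock transfer was 7.5 nL into about 7.5 µL; 0% = neutral wells and 100% = wells with inactivated enzyme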
T cruzi repl – T. cruzi replication inhibition | AID 1885 | T. cruzi beta-gal in NIH3T3, luminescence, 90 h | 300,000 tested, 1.4% active | inhibition, % (test concentration not listed);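 active = mean inhibition across valid replicates above about 55%, limit read from the data; inconclusive = mean below that limit but half or more replicates reach it; inactive = mean below it, under half of replicates reach it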;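 note: signal also drops with host cell toxicity which is not excluded here; 0% = plate median of DMSO wells and 100% = zero luminescence signal; higher percent means less beta-gal luminescence so fewer parasites; stock transfer was 50 nL into about 50 µL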
Beta apoptosis – beta cell apoptosis inhibition; INS-1E cytokine-induced death, ATP luminescence, 48 h; percent of positive-control rescue, neutral wells zero; protection from apoptosis, % (test concentration not listed); 300,000 tested, 0.8% active; AID 435005;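 active = all replicates at 75% or more, or half of them and the mean; inconclusive = half reach 75% but not the mean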;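 note: 0% = cytokine-treated negative control wells and 100% = positive control rescue; higher means more ATP so stronger rescue from cytokine killing; wells of about 40 µL received 100 nL stock; the first replicate is given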
Ecoli rRNA inh OD600 – also measured in Ecoli rRNA inh; calls as there; OD600 change, %; measured here: OD600 growth;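 optical density of the mix in the first replicate; 0 = DMSO median and -100 = no signal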
Ecoli rRNA inh RFP – recorded beside Ecoli rRNA inh, whose call it bears; RFP signal change, %; measured here: RFP humanized mutant strains;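 first replicate; 0 = DMSO median and -100 = no signal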
Numbers without * were called inactive; ? = inconclusive; . = no result given; & = joins results of further samples.

SMILES | B2AR ag | Bfl-1 A1 inh | LANA-H2B inh | Ecoli rRNA inh | Ecoli rRNA inh OD600 | Ecoli rRNA inh RFP | Calb FLC | ALR inh | T cruzi repl | Beta apoptosis
CC(C)c1cccc(C(C)C)c1OCCn1ccnc1 | -13.6 | 0.4 | -3.2 | . | . | . | 8.3 | . | 3.7 | -9.0
O=c1[nH]c(=S)[nH]c(O)c1N=Nc1ccc(S(=O)(=O)N2CCOCC2)cc1 | -5.8 | -3.5 | -3.3 | 13.9 | 1.5 | 0.7 | 2.0 | 95.3* | 7.2 | 8.8
CC(=O)N(C1=NCCCS1)c1ccc(Cl)cc1 | 8.9 | 1.1 | 1.9 | 5.6 | -9.5 | -2.4 | 26.8 | -2.4 | 7.6 | -4.7
Cc1c(N=Cc2c(O)n(Cc3ccco3)c(=O)[nH]c2=O)c(=O)n(-c2ccccc2)n1C | 4.5 | -0.7 | 0.8 | . | . | . | -2.9 | -5.8 | -9.8 | -2.5
Cc1ccc(-c2cc(-c3ccc(C)cc3)[n+](-c3ccc(C(=O)O)cc3)c(-c3ccc(C)cc3)c2)cc1 | -0.4 | 0.8 | 3.7 | 4.3 | 7.4 | 0.1 | -22.4 | 4.1 | 2.5 | -1.7
Cc1ccc(C2CC(=O)C(C=NCCN3CCN(C(=O)Cc4ccccc4)CC3)=C(O)C2)cc1 (configuration not stated) | 20.3 | -0.6 | -0.8 | . | . | . | 3.3 | 1.7 | -12.5 | .
COc1ccc(C(CNC(=O)c2ccc3c(c2)CCC3)N(C)C)cc1 (configuration not stated) | -0.4 | -0.1 | -2.5 | -0.6 | 6.2 | -2.1 | 2.2 | -7.5 | -2.6 | -9.8
Cc1ccc(OCC(=O)N2CCN(CC3CC4C=CC3C4)CC2)cc1 (configuration not stated) | -1.7 | -1.3 | -1.1 | . | . | . | -7.5 | -7.0 | 15.8 | -4.5
O=C(CCn1nc(-c2ccc(Cl)cc2)ccc1=O)N1CCC2(CC1)OCCO2 | -6.7 | 0.3 | 0.4 | -2.2 | -3.6 | -1.7 | 6.3 | -31.3 | -0.5 | 1.7
CN(C)CC#CCC(O)(c1ccccc1)C1CCCC1 (configuration not stated) | -1.0 | 0.9 | -2.8 | . | . | . | -1.9 | -0.8 | 66.9* | -4.2
CC(=O)C1(c2ccccc2)CCNCC1 | -5.0 | 1.5 | 1.5 | . | . | . | -3.9 | 0.0 | -10.2 | -2.4
CN(CC#CCN1CCCC1)C(=O)c1cccc(Cl)c1 | -0.4 | 1.3 | -8.0 | 0.6 | 3.9 | -1.5 | -5.7 | 48.7 | 12.6 | -1.9
COc1cc(OC)c(OC)cc1CNCCc1ccc(F)cc1 | -7.9 | -0.3 | -1.3 | 6.2 | 13.3 | -1.7 | -0.8 | -14.3 | 62.5* | -5.1
CC(C)C(=O)N1CCN(CCN=Cc2c(O)n(C)c(=O)n(C)c2=O)CC1 | 1.1 | 0.5 | -3.4 | . | . | . | 11.7 | -9.4 | -4.6 | -7.7
C[C@]12CC[C@H](O)CC1=CCC1C2CC[C@@]2(C)C1C[C@@H](O)[C@@H]2O (some centres not stated) | 1.2 | 0.6 | 0.7 | 1.5 | 4.7 | 5.3 | . | -3.4 | . | 1.8
c1ccc2c(NC3=NCCS3)cccc2c1 | -3.0 | 1.3 | 0.5 | . | . | . | -6.8 | 14.9 | -0.2 | -0.4
Cc1ccsc1C(=O)C1CCCN(Cc2c(C)nn(C(C)C)c2C)C1 (configuration not stated) | 0.0 | 0.4 | -5.6 | 10.3 | 12.1 | 2.7 | -2.2 | -2.7 | 61.7* | 3.4
CC(c1ccccc1)n1cncc1C(=O)N1CCCC1=O (configuration not stated) | -0.1 | 0.0 | -1.6 | . | . | . | 10.8 | -0.7 | -4.7 | -9.3
Cc1ccccc1-n1c(O)c(/C=N/c2nccs2)c(=O)[nH]c1=O | 2.5&-2.3 | 0.5&2.2 | -0.9&3.9 | 10.7&6.7 | 12.3&5.2 | 3.5&-0.8 | -8.4&10.3 | 4.5&5.1 | -0.3&-20.9 | -5.0&-5.1
CCCCSP1(=S)NCCCO1 (configuration not stated) | 1.6 | 0.1 | 0.4 | . | . | . | -8.0 | 5.2 | -0.6 | -9.0
O=c1[nH]c(=O)n(CCC2=CCCCC2)c(O)c1C=Nc1cccc(F)c1 | -14.8 | -0.2 | -2.4 | . | . | . | 52.6 | -0.7 | -3.7 | 1.0
CC(=O)c1cn(Cc2ccccc2C#N)c2ccccc12 | -3.7 | -0.8 | 0.8 | -5.6 | -10.4 | -5.6 | 53.6 | -13.1 | 17.7 | .
COc1ccc2nc(NC3=NCCN3)sc2c1 | -4.8 | 0.0 | 2.9 | 7.3 | 13.0 | -2.0 | 22.5 | -5.5 | -6.6 | -0.3
CCOC(C(=O)OCCC[N+](C)(CC)CC)(c1ccccc1)c1ccccc1 | 6.3 | -0.8 | 2.7 | 6.2 | 2.8 | -1.2 | 29.7 | -47.6 | 3.7 | 1.9
O=[N+]([O-])c1cccc(CN2CCN(Cc3ccc(Br)cc3)CC2)c1 | -4.3 | 0.4 | 4.6 | -2.4 | -6.3 | 3.3 | -13.8 | 2.0 | 53.2 | -2.7
CC(=O)Nc1ccccc1C(=O)OCc1ccc(F)cc1 | -5.6 | -0.7 | 0.0 | -5.6 | -11.5 | -1.4 | 14.0 | -16.1 | 6.8 | 2.9
O=C(CCc1ccc(O)cc1)N1C[C@H]2C[C@@H](C1)c1cccc(=O)n1C2 | -0.3 | -0.1 | -1.7 | 5.5 | 12.6 | -4.5 | -1.7 | . | -17.7 | -4.1
COC(=O)C1=C(c2ccc(F)cc2OCc2ccccc2)C[C@@H]2CC[C@H]1N2C(=O)NCCOc1ccc(OC)cc1 | 5.5 | -0.4 | 0.2 | 2.6 | 1.0 | -0.1 | . | -4.9 | . | 9.9
COC(=O)C1=C(c2cccc(C#N)c2)C[C@@H]2CC[C@H]1N2C(=O)NC1CCCCC1 | -2.7 | -1.3 | -0.9 | -1.1 | 3.4 | 3.6 | . | 1.9 | . | -4.0
CC1CN=C(NCc2ccccc2Cl)S1 (configuration not stated) | -4.8 | 0.3 | 8.3 | 5.4 | -0.6 | -3.8 | -14.6 | -13.0 | -11.5 | -6.7
O=C(CNS(=O)(=O)c1ccc(Br)s1)N1CCC2(CC1)OCCO2 | 4.0 | -0.9 | 5.2 | . | . | . | 4.2 | . | -2.1 | 4.2
OC(C#CCN1CCOCC1)(c1ccccc1)C1CCCC1 (configuration not stated) | 2.4 | -0.2 | 2.5 | . | . | . | -8.2 | -3.5 | -5.0 | -7.1
O=C(CN1CCOCC1)c1cccc2ccccc12 | -7.0 | 0.4 | -0.3 | . | . | . | 19.9 | -19.9 | 2.5 | -0.7
O=C(c1cn(Cc2ccccc2)c2ccccc12)N1CCCCC1 | -6.5 | -0.2 | 3.9 | -41.1 | -60.5 | -3.4 | -1.6 | -4.0 | 16.9 | -10.0
CC(C)c1ccc(C2NCc3ccccc3-n3cccc32)cc1 (configuration not stated) | 0.4 | 1.1 | -8.0 | -6.8 | -23.5 | -4.1 | -8.8 | -13.9 | 27.0 | 6.3
CCCCn1c(=O)c(C(=O)Nc2ccccc2N)c(O)c2ccccc21 | -9.0 | -0.6 | 2.4 | 2.1 | 4.2 | -0.5 | ? | 1.0 | -17.3 | -0.5
Cc1cccc(NC(=O)C(C)N2CC=C(c3ccccc3)CC2)c1 (configuration not stated) | -9.8 | 1.7 | -2.2 | -24.0 | -24.2 | 4.8 | -17.4 | -0.7 | 15.4 | -1.4
C=C(CC1CC(O)[C@]2(C)OC3CC4OC5C[C@]6(C)O[C@]7(C)CCC8OC9C[C@]%10(C)OC%11C(C)=CC(=O)OC%11CC%10OC9C[C@@H](C)C8OC7CC6O[C@]5(C)C/C=C\C4OC3CC2O1)C(=O)O (some centres not stated) | 16.3 | 0.0 | -6.2 | 9.8 | 11.3 | -7.6 | -4.2 | 5.6 | 4.6 | 4.4
O=c1[nH]c(=O)n(C2CCCCC2)c(O)c1C1NCCc2ccccc21 (configuration not stated) | 0.6 | -0.8 | -4.0 | . | . | . | -3.0 | -30.8 | . | .
CCOc1ccccc1-n1c(O)c(C=NCCCn2ccnc2)c(=O)[nH]c1=O | 24.9 | -0.7 | -1.9 | 18.5 | 14.8 | 7.0 | -3.6 | -4.3 | -13.1 | -3.2
CN(C)[C@@H]1C(=O)C(C(N)=O)=C(O)[C@@]2(O)C(=O)C3=C(O)c4c(O)cccc4[C@@](C)(O)[C@H]3[C@H](O)[C@@H]12 | -7.0&-4.9 | 0.1&-0.4&1.2 | -11.7&3.0&7.0 | . | . | . | 1.7&-5.6 | -21.0&3.3&-11.8 | -7.0&-8.9 | -4.7&-0.3
COc1cc(C)cc2oc(=O)c(CC(=O)N3C[C@H]4C[C@@H](C3)c3cccc(=O)n3C4)c(C)c12 | -8.6 | 0.2 | 9.0 | -2.5 | 4.8 | 1.6 | -4.9 | -4.5 | 26.7 | 0.0
Cc1nc2ccccc2c(=O)n1-c1ccccn1 | 4.3 | -2.4 | -1.5 | . | . | . | -1.9 | 0.0 | -17.4 | 0.6
CCOC(=O)c1c(C)[nH]c(C(=O)C(Cc2ccccc2)N(C)C)c1C (configuration not stated) | 6.0 | 1.8 | -27.2 | . | . | . | 2.9 | -5.0 | 43.1 | -4.0
O=P(OCC(F)(F)C(F)F)(N1CCOCC1)N1CCOCC1 | 6.3 | 1.2 | -1.5 | . | . | . | 7.9 | -3.2 | -1.0 | -6.5
C[C@]12CC[C@@H](O)CC1=CCC1C2CC[C@@]2(C)C1CC[C@@H]2N (some centres not stated) | 8.2 | -0.2 | -2.6 | -4.2 | -8.6 | -0.4 | . | -0.6 | . | -1.4
O=C1CC(c2ccccc2)CN1 (configuration not stated) | -9.4 | 0.0 | -5.0 | . | . | . | -5.2 | -1.2 | -12.4 | -1.7
CCN(CC)CCNC(=O)c1c(O)c2ccccc2n(Cc2ccccc2)c1=O | -3.6 | 0.3 | -3.0 | . | . | . | -0.1 | 3.4 | 9.0 | .
CCC(=NCc1ccco1)c1c(O)n(C2CCCCC2)c(=O)[nH]c1=O | -2.4 | 0.6 | 0.9 | . | . | . | -6.3 | . | 17.9 | 5.1
O=[N+]([O-])c1ccccc1-c1cc(-c2ccccc2)cc(-c2ccccc2)[n+]1Cc1ccccc1Cl | . | 0.1 | 3.7 | -53.3 | -80.7 | -35.1 | -12.1 | -41.4 | 56.2* | 134.0*
Cc1ccc(C2C(S(C)(=O)=O)=C(O)C(=O)N2c2ccccc2)cc1 (configuration not stated) (tested in a mixture with another compound) | 8.8 | -4.6 | -3.2 | . | . | . | 6.9 | -2.3 | -17.7 | -4.1

A portion of the library; the hit share may differ from the screen's.
